Bioassay records from PubChem.
HIV TAR-Tat = TAR RNA-Tat peptide displacers, HIV-1, primary screen, biochemical, FRET, FAM/TAMRA-labeled Tat | AID 1259389, 2018 | HIV-1 TAR RNA, Tat peptide displacement FRET; hits give high values | z-score (test concentration not listed) | 0.6% of 100,000 active;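 further: score is relative to mean and SD of negative controls; some compounds called inactive have numbers as strong as hits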
CDC25B CDK2 inh = primary biochemical HTRF screen for blockers of M-phase inducer phosphatase 2 binding to CDK2/cyclin A. HTRF CDC25B-CDK2/CyclinA binding, anti-His/anti-Flag; hits give high values. z-score (concentration not given with the values). AID 1259370, 2018. 0.72% of 94,000 active. P30305+P24941;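 further: score is relative to mean and SD of negative controls; strong numbers were not always called active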
* marks the source's active call; other numbers are inactive results; . = not tested or not shown.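 How the source made its calls: active means z-score from 3 up in half or more of its runs; inactive means the rest.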

SMILES	HIV TAR-Tat	CDC25B CDK2 inh
Cn1c(=O)c2c(ncn2CC(=O)N2CCN(c3cccc(Cl)c3)CC2)n(C)c1=O	0.93	-1.4
CCc1ccc(C2CC(c3ccccc3OC)n3ncnc3N2)cc1 (stereo not drawn)	-1.3	-0.53
O=c1[nH]c2cc3c(cc2c(=O)n1CCCc1nc(-c2ccncc2)no1)OCO3	0.43	.
O=[N+]([O-])c1ccc(C23CC4CC(CC(C4)C2)C3)cc1	.	-1.2
O=C(O)c1cc2c(ccc3ccccc32)o1	-0.65	2.4
Cc1nnc(N2C(=O)C(O)=C(C(=O)c3ccco3)C2c2ccccc2)s1 (stereo not drawn)	-2.1	-1.8
Cc1ccccc1OCc1cc(=O)n2c(-c3ccccc3)csc2n1	-0.5	-0.53
O=C(O)Cn1ncc2c3ccccc3n(Cc3ccc(Cl)cc3)c2c1=O	0.49	0.94
NS(=O)(=O)c1cccc(NC(=O)Nc2cccs2)c1	.	-0.35
O=C(c1ccccc1)c1cc2cc(Cl)ccc2[nH]1	2	-2.5
O=c1oc2ccccc2c(O)c1Sc1ccccc1	.	-4.1
Cc1cc2nc(-c3cc(NC(=O)c4ccco4)ccc3O)oc2cc1C	.	-2.6
Cc1cc(=O)oc2n[nH]c(-c3ccccc3)c12	2.6	0.53
CC1Cc2cc(S(=O)(=O)N(C)CC(=O)NC3CCCC3)ccc2N1C(=O)C1CCC1 (stereo not drawn)	-0.54	.
O=C(c1ccc(Cl)cc1)c1cn(Cc2ccccc2)c2cc3c(cc2c1=O)OCO3	0.7	-0.5
O=C(CSc1nnc2sc3ccccc3n12)N1CCOCC1	.	-0.84
CC(C)CCNC(=O)c1c(N2CCCC2=O)c2cc(F)ccc2n1C	0.44	.
CCOC(=O)CNC(=O)c1ccc(SCC)cc1	.	-0.85
CCOC(=O)N1CCN(C(=O)C(CC(C)C)NC(=O)C2CCCCC2)CC1 (stereo not drawn)	-0.12	-0.64
Cc1cc(C)c(NS(=O)(=O)c2cc([N+](=O)[O-])ccc2C)c(C)c1	.	0.49
N=C1C(c2nc3ccccc3[nH]2)=C(O)CN1c1ccc(OCc2ccccc2)cc1	3	0.52
Clc1ccc(Sc2cn[nH]c2-c2ccc3c(c2)OCCO3)cc1	.	0.93
CCCCCc1nc(N)c(C#N)c(-c2ccco2)c1CCCC	.	-1.9
COCc1c(Br)c(C)nc2sc3c(=O)n(-c4cccc(OC)c4)nnc3c12	-0.68	-0.85
Cc1ccc(NS(=O)(=O)c2cc(-c3cnc(C4CC4)o3)ccc2C)c(C)c1	1.4	.
COc1ccc(OC)c(NS(=O)(=O)c2cccs2)c1	-0.32	-0.94
CCN(CCN(C)C)C(=O)c1cc2c(=O)n(CC)c3ccccc3c2s1	0.65	-1.1
Cn1c(=O)c(=O)n(C)c2cc(NC(=O)c3cccs3)ccc21	1.1	-0.99
Cc1ccc(S(=O)(=O)NC(=O)N2CCCN(c3c(Cl)cncc3Cl)CC2)cc1	.	-1.2
Cc1cc(C)c(S(=O)(=O)N2CCN(c3nc4ccccc4n4cccc34)CC2)c(C)c1	0.72	-1.6
Oc1[nH]c(=S)sc1N=Nc1ccc(F)cc1F	.	-2.3
O=c1c2nccnc2nc(SCc2ccc(F)cc2)n1CCc1ccccc1	-0.49	1.3
O=C1C2C(c3ccccc3)OC3(C(=O)c4ccccc4C3=O)C2C(=O)N1c1ccc(F)c(Cl)c1 (stereo not drawn)	1.4	0.7
OCc1cnc(SCc2cccc(F)c2)n1Cc1ccc(F)cc1	0.64	.
CC(C)(C)C1CCc2onc(C(=O)Nc3ccc(F)cc3F)c2C1 (stereo not drawn)	.	-1.1
CCc1nnc(NC(=O)c2nc(SC(C)C)ncc2Cl)s1	0.42	1.1
Cc1ccc(NS(=O)(=O)c2ccc(-c3cnc(C)o3)cc2)c(Cl)c1	1.2	.
CCOc1nc2cnccc2n(CC(=O)N2CCCC2)c1=O	1	.
O=C(c1cnn2ccccc12)N1CCc2ccccc21	.	-1.4
CC(=O)N1c2ccc(S(=O)(=O)N(C)CC(=O)N3CCCC3)cc2CC1C (stereo not drawn)	1.1	.
CC(C)(C)c1ccc(C(=O)Nc2nnc3n2CCCS3)cc1	1.1	.
CCOC(=O)CNC(=O)N1CCSc2ccccc21	0.23	.
CCCN1CCN(CCCNc2ncnc3onc(-c4ccc(C)cc4)c23)CC1	-0.62	.
O=S(=O)(c1cc(F)ccc1F)N1CCCC1c1ccco1 (stereo not drawn)	1.1	-2.5
Nc1nc2c(c(=O)[nH]1)C(c1ccc(OCc3ccc(Cl)cc3)cc1)CC(=O)N2 (stereo not drawn)	-1.9	-1.2
NC(=O)c1cc(Oc2ccc(Br)cc2)nc2ccccc12	1.2	-0.33
Clc1ccc(C2=Nn3cnnc3SC2)cc1	1.6	-1.4
CC(C)CC1=NN(C(=O)c2ccc(N(C)C)cc2)C(O)(C(F)(F)F)C1 (stereo not drawn)	.	-1.1
CCc1ccc(NC2=NS(=O)(=O)C(c3ccccc3)=C2C)cc1	-3.3	0.23
NC(=O)CCSc1n[nH]c(=S)s1	1.2	-2.9
CC1=CCC2C(=O)N(c3cc(C)on3)C(=O)C2C1 (stereo not drawn)	2.8	-0.56
CN(C(=O)CN1CCOCC1)n1cnc2ccsc2c1=O	.	0.38
CCn1c(SCC(=O)Nc2nnc(C)s2)nnc1-c1cc2ccccc2o1	5.1*	.
O=C(Nc1ccc2c(c1)CCC2)C1CCCN(c2cnccn2)C1 (stereo not drawn)	-1	-1.5
Cc1nc(CC(=O)Nc2nc(-c3ccc(Br)cc3)c(C)s2)cs1	-1.2	-1.6
CS(=O)(=O)Nc1cccc(C2=NN(C(=O)c3cccs3)C(c3ccccc3)C2)c1 (stereo not drawn)	.	-1
O=C(CCc1nc(-c2cccs2)no1)NCC1CCCO1 (stereo not drawn)	1.5	-1.1
CCOc1cc(-c2ccc(OC(=O)c3ccccc3F)c(OC)c2)cc(=O)c2c(C)oc(C)c12	-1.1	-1.6
CC1=C(C(=O)OC2CCCC2)C(c2ccc(F)cc2)C2=C(CC(c3cccs3)CC2=O)N1 (stereo not drawn)	0.96	-1.3
CNC(=O)NCc1c(F)cccc1Cl	.	-1.6

The list goes on:
SMILES	HIV TAR-Tat	CDC25B CDK2 inh
O=C(CN1C(=O)COc2ccccc2C1=O)c1cccc(S(=O)(=O)N2CCCC2)c1	0.06	1.4
CCNC(=O)NC1CCN(c2ncccn2)CC1	1.4	-1.1
O=C(Nc1c2c(nn1-c1cccc(Cl)c1)CSC2)C(=O)N1CCC(O)CC1	-0.1	.
Cc1cc(C(C)(C)C)c(O)c(C(C)(C)C)c1	3.3	.
CC1CCCC(NC(=O)c2cc3c(=O)n(C)c4ccccc4c3n2C)C1C (stereo not drawn)	-1.1	-0.81
CCOc1cc(/C=C2/SC(=S)N(C)C2=O)cc(Cl)c1OCc1cccc2ccccc12	.	-2.5
Cc1nn(-c2ccc(N3CCCCC3)nn2)c(C)c1CCC(=O)N1CCN(c2ccccn2)CC1	-0.28	.
Cc1ccc(CN2CCc3nc(N4CCN(c5ccc(F)cc5)CC4)ncc3C2)cc1	-0.19	.
COc1ccccc1CNc1nc2ccc(Cl)cc2n2cnnc12	0.34	-6.8
CCc1nn2c(-c3ccco3)ccnc2c1-c1ccc(F)cc1	-2.5	-3.4
C#CCn1c(CCC)nc2ccccc21	0.44	-1.6
O=C(CCC1N=C2c3ccccc3N=C(SCc3ccccc3F)N2C1=O)NCc1cccs1 (stereo not drawn)	1.7	.
O=c1nc(SCc2ccccc2Cl)c2c(n1C1CCCC1)CCC2	0.99	-2.1
O=C(O)CC1(CC(=O)Nc2cc(F)ccc2Cl)CCCCC1	.	-2.7
O=C(CSc1cn(CC(=O)N2CCCCC2)c2ccccc12)NCc1ccco1	-0.41	.
CCCCn1c(C(O)c2ccccc2)nc2ccccc21 (stereo not drawn)	3.5	0.42
N#CC1=C(SCC(N)=O)NC2=C(C(=O)CCC2)C1c1ccccc1Cl (stereo not drawn)	0.09	-3.2
O=C(NC(=O)c1ccc(-c2cccs2)s1)Nc1ccc(C(F)(F)F)cn1	.	-1.7
CC1COc2c(F)c(F)cc3c(=O)c(C(=O)O)cn1c23 (stereo not drawn)	.	0.04
Cc1ccsc1CN(C(=O)c1oc2c(C)c(C)ccc2c1C)C1CCS(=O)(=O)C1 (stereo not drawn)	2	-2.3
O=C(NNC(=S)Nc1cccc(C(F)(F)F)c1)c1cccn1-c1ccc(F)cc1	.	-1.2
C=Cc1ccc(Cn2c(C(=O)OCC)c(NC(C)=O)c3c(C)c(C)sc32)cc1	0.74	.
O=C(O)c1cc(-c2ccc(Cl)cc2)cc2ccccc12	0.56	.
COCCNC(=O)CSc1nnc(-c2ccncc2)o1	2.9	-1.3
N#CC1=C(SCC(=O)Nc2ccc(Br)cc2)NC(=O)CC1c1ccc2c(c1)OCO2 (stereo not drawn)	0.32	-1.9
CCN1CCCC1CNC(=O)CN1C(=O)CCn2nc(C)cc21 (stereo not drawn)	-1.2	.
O=C(O)CCCNS(=O)(=O)c1ccc2c(c1)OCCO2	.	0.62
Cc1ccc(-n2ncc3c(NC4CCCCC4)ncnc32)cc1C	1.9	.
O=C1CC(NCc2ccc3c(c2)OCO3)C(=O)N1c1ccc(Cl)cc1 (stereo not drawn)	1.5	.
O=C(Nc1ccc2c(c1)CCCN2C(=O)c1cccs1)C1CCCCC1	0.5	.
NC(=O)C1(N2CCCCC2)CCN(C2CC(=O)N(c3ccc(F)cc3)C2=O)CC1 (stereo not drawn)	.	-0.39
CCC1CCC(=O)C(C2(O)C(=O)Nc3ccccc32)C1 (stereo not drawn)	0.57	-0.88
Cc1ccc(NS(=O)(=O)c2ccc(-c3coc(C)n3)cc2)c(Br)c1	-0.01	.
O=C(Cc1ccccc1F)N1CCC(n2nc(-c3ccccc3)oc2=O)CC1	0.83	-0.81
CCCc1nnc2n1Nc1nc3ccccc3nc1S2	0.1	0.46
COc1cccc(NC(=O)c2cccc3c2OCCCO3)c1	.	-1.4
O=S(=O)(c1ccccc1)c1nnn2c1nc(NC1CCCCC1)c1ccccc12	0.69	-2.7
Cc1c(C(=O)N2CCOCC2)oc2ccc(S(=O)(=O)N3CCCCCC3)cc12	.	0.02
CCOC(=O)C1CCCN(c2c(N3CCN(C)CC3)c(=O)c2=O)C1 (stereo not drawn)	-0.91	-0.76
COCCNc1nc(SC)nc(-c2ccccc2)c1C#N	-0.95	-0.66
COc1ccc(-n2c(SCc3nc(-c4cccs4)no3)nnc2-c2ccncc2)cc1	2	-1.3
Oc1c(Cl)cc(Cl)cc1/C=N/c1ccnn1-c1ccccc1	.	-1.4
NC(=O)C1CCN(CC(O)COc2ccc(Cl)c(Cl)c2)CC1 (stereo not drawn)	.	-0.09
O=C(CSc1ncc(S(=O)(=O)c2ccccc2)c(=O)[nH]1)Nc1ccc2c(c1)OCCO2	0.12	-2.5
CC(C)=CC(=O)NCCSCc1ccc(Cl)cc1	.	0.73
CC(C)(C)c1ccc(-c2nn3c(Cn4cnc5ccccc54)nnc3s2)cc1	2.4	0.17
CC1CCCCC1NC(=O)C(Cc1ccccc1)NS(=O)(=O)c1ccc2c(c1)CCC(=O)N2 (stereo not drawn)	.	-0.73
CC(Sc1nc2ncccc2o1)C(=O)N1CCCc2ccccc21 (stereo not drawn)	-0.63	.

14 structures from above, ordered by SMILES length, low to high.
SMILES	HIV TAR-Tat	CDC25B CDK2 inh
CCCc1nnc2n1Nc1nc3ccccc3nc1S2	0.1	0.46
CC(C)=CC(=O)NCCSCc1ccc(Cl)cc1	.	0.73
CCC1CCC(=O)C(C2(O)C(=O)Nc3ccccc32)C1 (stereo not drawn)	0.57	-0.88
CC(Sc1nc2ncccc2o1)C(=O)N1CCCc2ccccc21 (stereo not drawn)	-0.63	.
Oc1c(Cl)cc(Cl)cc1/C=N/c1ccnn1-c1ccccc1	.	-1.4
NC(=O)C1CCN(CC(O)COc2ccc(Cl)c(Cl)c2)CC1 (stereo not drawn)	.	-0.09
CCOC(=O)C1CCCN(c2c(N3CCN(C)CC3)c(=O)c2=O)C1 (stereo not drawn)	-0.91	-0.76
O=C(Cc1ccccc1F)N1CCC(n2nc(-c3ccccc3)oc2=O)CC1	0.83	-0.81
Cc1ccc(NS(=O)(=O)c2ccc(-c3coc(C)n3)cc2)c(Br)c1	-0.01	.
CC(C)(C)c1ccc(-c2nn3c(Cn4cnc5ccccc54)nnc3s2)cc1	2.4	0.17
Cc1c(C(=O)N2CCOCC2)oc2ccc(S(=O)(=O)N3CCCCCC3)cc12	.	0.02
COc1ccc(-n2c(SCc3nc(-c4cccs4)no3)nnc2-c2ccncc2)cc1	2	-1.3
CC1CCCCC1NC(=O)C(Cc1ccccc1)NS(=O)(=O)c1ccc2c(c1)CCC(=O)N2 (stereo not drawn)	.	-0.73
O=C(CSc1ncc(S(=O)(=O)c2ccccc2)c(=O)[nH]1)Nc1ccc2c(c1)OCCO2	0.12	-2.5

Remaining list, next part.
SMILES	HIV TAR-Tat	CDC25B CDK2 inh
COc1ccc2c(c1OC)C(=O)OC2CC(=O)O (stereo not drawn)	1.3	-1.1
Cn1ncc2c(NCCc3ccc(S(N)(=O)=O)cc3)ncnc21	1.7	.
Cn1c(C(=O)NC2CC2)cc2c(=O)n(C)c3ccccc3c21	0.97	-1.1
O=C(Nc1ccc(F)cc1)C(=O)Nc1ccc2nc3n(c(=O)c2c1)CCCCC3	1.8	0.01
COc1ccc(OC)c(CNc2ncc(-c3cccc(Br)c3)n2C)c1	1.4	0.02
CCCCOC(=O)C1=C(C)NC2=C(C(=O)CCC2)C1c1cccc(C(F)(F)F)c1 (stereo not drawn)	.	0.44
Cc1c(C(=O)NC2CCCc3ccccc32)sc2nc3n(c(=O)c12)CCC3 (stereo not drawn)	1.4	.
O=C(Nc1ccc2c(c1)OCCO2)c1cc(-c2cccnc2)nc2ccccc12	0.51	.
